Ecoli rRNA inh – selective bacterial rRNA inhibition in E. coli. 350,000 compounds, 1.6% hits. E. coli WT GFP vs humanized-ribosome RFP mutants, fluorescence, 24 h; hits give low values; DMSO median 0, no signal -100. GFP signal change (wild-type ribosome), % (test concentration not listed);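 active means significant combined selectivity score with lowered wild-type GFP, culture density cut under 30%, mutant RFP and density less affected; inactive means any of these conditions unmet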; further: one replicate is shown; some compounds called inactive have numbers as strong as hits
FGF22 binding – binders of recombinant human FGF22 by thermal shift; 340,000 compounds, 1.5% hits; SYPRO orange fluorescence; percent of sucrose octasulfate shift, DMSO zero; Q9HCT0; AID 651658; calls only at 9.99 µM;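 active means melting point raised past a set limit in the mean and every replicate; inconclusive means no clear call; three in four hits are not shown here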
Target sequence (Q9HCT0 whole entry, looked up): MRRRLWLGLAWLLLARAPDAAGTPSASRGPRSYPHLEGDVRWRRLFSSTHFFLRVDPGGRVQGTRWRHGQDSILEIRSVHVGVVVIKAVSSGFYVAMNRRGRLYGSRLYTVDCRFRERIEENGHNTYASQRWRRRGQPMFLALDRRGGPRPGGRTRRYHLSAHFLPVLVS
MLL AF4-AF9 inh – inhibitors of human MLL-AF4/AF9 interaction; AlphaScreen, biotin-AF4 peptide binding to FLAG-AF9; inhibition, % at 10 µM; 350,000 compounds, 0.47% hits;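 active means every replicate reaching a set inhibition limit, whatever the replicate mean, cut at about 25% in these data; inconclusive means mean inhibition reaches that limit but some replicates miss it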;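 further: 0% = plate neutral control median and 100% = total signal loss; the record names both 10 and 1 µM as test concentration; the first replicate is given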
Target sequence (P42568 whole entry, looked up): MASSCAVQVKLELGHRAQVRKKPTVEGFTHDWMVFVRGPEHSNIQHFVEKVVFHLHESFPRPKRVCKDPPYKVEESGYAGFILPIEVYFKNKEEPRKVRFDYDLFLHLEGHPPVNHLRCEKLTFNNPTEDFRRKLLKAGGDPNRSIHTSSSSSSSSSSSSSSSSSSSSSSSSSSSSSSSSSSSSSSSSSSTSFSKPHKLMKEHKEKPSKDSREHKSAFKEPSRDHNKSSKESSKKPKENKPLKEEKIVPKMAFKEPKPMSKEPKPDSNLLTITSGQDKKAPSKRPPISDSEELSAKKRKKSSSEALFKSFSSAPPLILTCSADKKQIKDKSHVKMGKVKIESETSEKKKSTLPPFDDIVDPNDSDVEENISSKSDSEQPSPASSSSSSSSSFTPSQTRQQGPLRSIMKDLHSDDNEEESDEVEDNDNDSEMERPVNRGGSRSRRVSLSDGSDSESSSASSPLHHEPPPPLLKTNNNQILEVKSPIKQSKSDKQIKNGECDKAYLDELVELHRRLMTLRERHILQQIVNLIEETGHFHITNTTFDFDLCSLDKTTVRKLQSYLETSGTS
ALR H2O2 inh – blocks human ALR sulfhydryl oxidase activity | P55789 | purified ALR, DTT oxidation, H2O2 HRP-luminol luminescence | inhibition, % (no concentration beside the values) | 290,000 compounds, 3.8% hits | AID 485317;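 active means mean and each replicate at 75% or more; inconclusive means only one of the two met; inactive means neither met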;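 further: stock transfer was 7.5 nL into about 7.5 µL; 0% = neutral wells and 100% = wells with inactivated enzyme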
Target sequence (P55789 whole entry, looked up): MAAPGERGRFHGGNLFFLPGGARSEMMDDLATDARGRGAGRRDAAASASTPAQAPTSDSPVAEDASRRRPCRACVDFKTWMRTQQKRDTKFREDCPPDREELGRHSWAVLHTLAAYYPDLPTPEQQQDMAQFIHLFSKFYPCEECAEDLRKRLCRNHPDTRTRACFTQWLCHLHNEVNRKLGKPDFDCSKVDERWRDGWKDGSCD
Vif A3G – HIV-1 Vif–A3G interaction blockers – biochemical, TR-FRET, GST-Vif 1-94, biotin-A3G peptide, dose response retest, primary screen (AID 1117319). TR-FRET GST-Vif / biotin-A3G peptide binding; higher % means a stronger effect; test concentration not given here; strong numbers were not always called active. inhibition, %; hits with a dose series show IC50 in µM. 260,000 compounds, 0.57% hits;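 active means above the screen mean plus three standard deviations and confirmed in dose response; inconclusive means results disagree or hit not tested in dose response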;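 further: Vif residues 1-94 fused to GST binding biotinylated APOBEC3G peptide 110-148; 0% = full assay without inhibitor and 100% = GST in place of GST-Vif; retest series ran down from 100 µM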
Ecoli growth – inhibitors of Escherichia coli growth; OD600, 23 h; hits give low values; OD600 absorbance (no concentration beside the values); 330,000 compounds, 0.21% hits; AID 1053175;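 active means OD600 absorbance below the run mean of sample wells minus 3.6 SD, in any replicate, cut at about 0.56 in these data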;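 further: stock transfer was 300 nL into about 60 µL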
HNF4A DNA FP – change in binding of human HNF4 alpha to DNA. P41235. 360,000 compounds, 0.3% hits. activity change, % at 10 µM. HNF4a-FITC DNA binding, fluorescence polarization, 1 h; in the data active means activity change above about 30%, passing the limit was not always enough;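 further: controls were the assay level and a saturating level of protein; the project sought stronger binding though the title names inhibitors; some compounds called inactive have numbers as strong as hits; positive values seem to mean higher polarization but the record does not say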
Ecoli rRNA inh OD600 – further read-out of Ecoli rRNA inh, marked with its call; OD600 change, %; measured here: OD600 growth;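 optical density of the mix in the first replicate; 0 = DMSO median and -100 = no signal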
Ecoli rRNA inh RFP – second read-out of Ecoli rRNA inh, no call of its own (marks repeat the call); RFP signal change, %; measured here: RFP humanized mutant strains;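 first replicate; 0 = DMSO median and -100 = no signal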
Active calls of the source: *; & = joins results of further samples. The list is partial (hit frequency here may not be typical).

Cc1ccc(C(=O)OCC(=O)NCc2ccc(Cl)cc2Cl)o1 was read as Ecoli rRNA inh 2, FGF22 binding inactive, MLL AF4-AF9 inh -0.4, Vif A3G -2%, Ecoli growth 0.67, HNF4A DNA FP 1.3, Ecoli rRNA inh OD600 4 and Ecoli rRNA inh RFP -3.1.
COCCNC(=O)C1C(=O)Nc2ccccc2C(=O)N1c1ccc2c(c1)OCCO2 (centres undefined) was read as Ecoli rRNA inh 5, FGF22 binding inactive, MLL AF4-AF9 inh -0.3, HNF4A DNA FP 5.7, Ecoli rRNA inh OD600 6 and Ecoli rRNA inh RFP -0.4.
C[C@@H]1CN([C@H](C)CO)C(=O)c2cc(NC(=O)Cc3ccccc3)ccc2O[C@@H]1CN(C)S(=O)(=O)c1cccs1 was read as Ecoli rRNA inh -2, FGF22 binding inactive, MLL AF4-AF9 inh 1.9, Ecoli rRNA inh OD600 -1 and Ecoli rRNA inh RFP 0.3.
Screening COc1cccc(/C=N/NC(=O)c2cccc([N+](=O)[O-])c2)c1OS(=O)(=O)c1ccc(C)cc1 returned ALR H2O2 inh -2, Vif A3G 9% and HNF4A DNA FP -2.3.
`CCN(CC)CCNC(=O)CCCNC(=O)Cn1cnc2sc(C)c(C)c2c1=O` gave ALR H2O2 inh -4, Vif A3G inconclusive, Ecoli growth 0.72 and HNF4A DNA FP -0.3.
`CC1(C)OC(=O)N(c2ccccc2)C12C=Cc1cc(Br)ccc1O2` (centres undefined) gave ALR H2O2 inh -11, Vif A3G -2%, Ecoli growth 0.73 and HNF4A DNA FP 2.3.
For O=C(NCC1CCCO1)c1c(O)c2cccc3c2n(c1=O)CC3 (centres undefined) the results were ALR H2O2 inh -24, Vif A3G 2%, Ecoli growth 0.72 and HNF4A DNA FP 1.9.
`COc1cc(S(=O)(=O)N(Cc2ccco2)C2CCCC2)ccc1-n1cnnn1` gave Ecoli rRNA inh -15, FGF22 binding inactive, MLL AF4-AF9 inh 3.3, ALR H2O2 inh -6, Vif A3G -2%&14%, Ecoli growth 0.71, HNF4A DNA FP 1.8, Ecoli rRNA inh OD600 -16 and Ecoli rRNA inh RFP -1.8.
For O=C(Nc1ccccc1F)N1CCCCN2[C@@H](CO)[C@@H](c3ccc(C#Cc4cccnc4)cc3)[C@@H]2C1 the results were Ecoli rRNA inh 7, FGF22 binding inactive, MLL AF4-AF9 inh 0.3, Ecoli rRNA inh OD600 11 and Ecoli rRNA inh RFP 5.8.
For Cc1ccc(-n2nc(C(=O)O)cc2-c2ccc(Cl)cc2)cc1 the results were Ecoli rRNA inh -55, FGF22 binding inactive, MLL AF4-AF9 inh -1.1, ALR H2O2 inh 15, Vif A3G 10%, Ecoli growth 0.72, HNF4A DNA FP -0.6, Ecoli rRNA inh OD600 -66 and Ecoli rRNA inh RFP -8.9.
`CCOC(=O)C1(Cc2ccccc2)CCN(Cc2cnc(N3CCOCC3)s2)CC1` gave Ecoli rRNA inh 10, FGF22 binding inactive, MLL AF4-AF9 inh 3.5, ALR H2O2 inh -3, Vif A3G -5%, Ecoli growth 0.65, HNF4A DNA FP 4.3, Ecoli rRNA inh OD600 -2 and Ecoli rRNA inh RFP -1.9.
For Cc1ccccc1NC(=O)C(C)c1ccc(-c2ccccc2)c(F)c1 (centres undefined) the results were ALR H2O2 inh -15, Vif A3G -3%, Ecoli growth 0.72 and HNF4A DNA FP -0.5.
O=C(NCCCCC(NC(=O)C1CCCCC1)C(=O)O)c1ccccc1 (centres undefined) was read as Ecoli rRNA inh 13, FGF22 binding inactive, MLL AF4-AF9 inh 0.9, ALR H2O2 inh -7, Vif A3G 24%, Ecoli growth 0.69, HNF4A DNA FP 3.6, Ecoli rRNA inh OD600 15 and Ecoli rRNA inh RFP -5.0.
C[C@H]1CCCCO[C@@H](CN(C)C(=O)Cc2ccccc2)[C@@H](C)CN([C@@H](C)CO)C(=O)c2cc(NS(=O)(=O)c3ccc(Cl)cc3)ccc2O1 was read as Ecoli rRNA inh -4, FGF22 binding inactive, MLL AF4-AF9 inh -7.4, Ecoli rRNA inh OD600 -5 and Ecoli rRNA inh RFP 2.5.
For CC(NC(=O)C1CCCCC1)C(c1cccs1)N1CCOCC1 (centres undefined) the results were Ecoli rRNA inh 3, FGF22 binding inactive, MLL AF4-AF9 inh -7.4, ALR H2O2 inh 2, Ecoli growth 0.75, HNF4A DNA FP 4.0, Ecoli rRNA inh OD600 3 and Ecoli rRNA inh RFP 1.0.
Screening Cc1cc(C(=O)N/N=C/c2c(C)[nH]n(-c3ccccc3)c2=O)n[nH]1 returned Ecoli rRNA inh -2, FGF22 binding inactive, MLL AF4-AF9 inh 1.9, ALR H2O2 inh 7, HNF4A DNA FP 0.0, Ecoli rRNA inh OD600 -7 and Ecoli rRNA inh RFP -0.1.
`Cc1cc(C(=O)Cn2nc(C(=O)O)c3ccccc3c2=O)c(C)n1CCc1ccc(Cl)cc1` gave Ecoli rRNA inh 8, MLL AF4-AF9 inh 1.4, Vif A3G 13%, Ecoli growth 0.67, HNF4A DNA FP -0.4, Ecoli rRNA inh OD600 -2 and Ecoli rRNA inh RFP 20.
Screening CCOc1ccc2ccccc2c1/C=N/NC(=O)CC1(C)OCCCO1 returned ALR H2O2 inh -19, Vif A3G 4% and HNF4A DNA FP -1.1.
COc1ccc(CNC(=O)c2ccncc2)cc1 was read as Ecoli rRNA inh 5, FGF22 binding inactive, MLL AF4-AF9 inh 1.8, ALR H2O2 inh -6, Vif A3G -5%, Ecoli growth 0.72, HNF4A DNA FP -3.4, Ecoli rRNA inh OD600 13 and Ecoli rRNA inh RFP 2.4.
`CCCCNC(=O)c1cn(CC(C)C)c(=O)c2c1c1ccccc1n2C` gave Ecoli rRNA inh 5, FGF22 binding inactive, MLL AF4-AF9 inh 1.8, ALR H2O2 inh 9, Vif A3G 0%, Ecoli growth 0.71, HNF4A DNA FP 5.3, Ecoli rRNA inh OD600 22 and Ecoli rRNA inh RFP 1.5.
Screening CCc1nc(Nc2ccccc2OC)c2oc3ccccc3c2n1 returned Ecoli rRNA inh 0, FGF22 binding inactive, MLL AF4-AF9 inh -2.3, Vif A3G -2%, Ecoli growth 0.67, HNF4A DNA FP -2.8, Ecoli rRNA inh OD600 -3 and Ecoli rRNA inh RFP 0.7.
Screening C[C@@H]1CCCCO[C@H](CN(C)Cc2ccc(Cl)c(Cl)c2)[C@@H](C)CN([C@@H](C)CO)C(=O)c2cc(NC(=O)Nc3ccc4c(c3)OCO4)ccc2O1 returned Ecoli rRNA inh -1, FGF22 binding inactive, MLL AF4-AF9 inh 6.0, Ecoli rRNA inh OD600 7 and Ecoli rRNA inh RFP -5.8.
For C[C@@H]1CN([C@H](C)CO)C(=O)c2cc(NC(=O)CCCCCC(=O)Nc3ccccc3N)ccc2O[C@@H]1CN(C)S(=O)(=O)c1ccccc1 the results were Ecoli rRNA inh -2, FGF22 binding inactive, MLL AF4-AF9 inh -1.0, Ecoli rRNA inh OD600 3 and Ecoli rRNA inh RFP -0.9.
`COc1cc(NC(=O)c2cccc([N+](=O)[O-])c2C)ccc1NC(=O)c1ccco1` gave Ecoli rRNA inh 4, FGF22 binding inactive, MLL AF4-AF9 inh -1.6, ALR H2O2 inh -2, Vif A3G 15%, Ecoli growth 0.69, HNF4A DNA FP 5.0, Ecoli rRNA inh OD600 -6 and Ecoli rRNA inh RFP 0.9.
COc1ccc(NC(=O)/C(C#N)=C/c2c(C)nn(-c3ccc(F)cc3)c2Cl)cc1Cl was read as Ecoli rRNA inh 2, FGF22 binding inactive, MLL AF4-AF9 inh -10, ALR H2O2 inh -3, Vif A3G 0%, Ecoli growth 0.65, HNF4A DNA FP -4.7, Ecoli rRNA inh OD600 6 and Ecoli rRNA inh RFP -4.2.
Screening O=[N+]([O-])c1cnccc1Nc1ccc(F)cc1 returned ALR H2O2 inh -1, Vif A3G 21%, Ecoli growth 0.75 and HNF4A DNA FP 4.1.
Screening COc1ccc(S(=O)(=O)N2CCCCC2)cc1NC(=O)c1ccc(N2CCCC2=O)cc1 returned Ecoli rRNA inh 17, FGF22 binding inactive, MLL AF4-AF9 inh -0.2, ALR H2O2 inh -2, Vif A3G inconclusive, Ecoli growth 0.65, HNF4A DNA FP 4.3, Ecoli rRNA inh OD600 14 and Ecoli rRNA inh RFP 0.7.
COc1ccc(-n2c(=O)c3ccccc3n(CC(=O)NC3CCCCC3)c2=O)c(OC)c1 was read as ALR H2O2 inh -5, Vif A3G -7%, Ecoli growth 0.73 and HNF4A DNA FP 0.7.
`O=C(Nc1cccnc1Cl)c1cccs1` gave Ecoli rRNA inh 5, FGF22 binding inactive, MLL AF4-AF9 inh -1.0, Ecoli growth 0.7, HNF4A DNA FP 5.9, Ecoli rRNA inh OD600 9 and Ecoli rRNA inh RFP -0.1.
For Cc1noc(C)c1NC(=O)Nc1cccc2c1O[C@H](CN(C)S(=O)(=O)c1cccs1)[C@@H](C)CN([C@H](C)CO)C2=O the results were Ecoli rRNA inh -2&18, FGF22 binding inactive, MLL AF4-AF9 inh -1.9&-0.8, Vif A3G -1%, Ecoli growth 0.72, HNF4A DNA FP -3.4, Ecoli rRNA inh OD600 -5&8 and Ecoli rRNA inh RFP -0.3&2.2.
`O=C(CCCCC(=O)Nc1c(I)cc(I)c(C(=O)O)c1I)Nc1c(I)cc(I)c(C(=O)O)c1I` gave Ecoli rRNA inh 15, MLL AF4-AF9 inh -3.2, ALR H2O2 inh -17, Ecoli growth 0.73, HNF4A DNA FP -1.0, Ecoli rRNA inh OD600 14 and Ecoli rRNA inh RFP -0.5.
`CN(C)C(CNC(=O)c1ccc(S(=O)(=O)Nc2cccc(C(F)(F)F)c2)cc1)c1ccco1` (centres undefined) gave Ecoli rRNA inh -2, FGF22 binding inactive, MLL AF4-AF9 inh -32, ALR H2O2 inh -3, Vif A3G -6%, Ecoli growth 0.71, HNF4A DNA FP 5.8, Ecoli rRNA inh OD600 -19 and Ecoli rRNA inh RFP 1.3.
Cc1cc(C)nc(NC(=O)CSc2nn(-c3ccccc3)c(=S)s2)n1 was read as FGF22 binding inactive, MLL AF4-AF9 inh 1.0, ALR H2O2 inh 0, Vif A3G 0%, Ecoli growth 0.64 and HNF4A DNA FP 3.9.
`COC(=O)c1ccc(CN2CC(=O)N3[C@H](CO)[C@@H](c4ccc(Br)cc4)[C@@H]3C2)cc1` gave Ecoli rRNA inh 0, FGF22 binding inactive, MLL AF4-AF9 inh -0.4, Ecoli rRNA inh OD600 -5 and Ecoli rRNA inh RFP 0.9.
`O=C(/C=C/c1ccc(Cl)c(Cl)c1)NCc1ccco1` gave ALR H2O2 inh 6, Vif A3G -5%, Ecoli growth 0.65 and HNF4A DNA FP -1.8.
For COc1ccc(N2CC(O)=C(c3nc4ccccc4s3)C2=N)c(OC)c1 the results were Vif A3G 2%, Ecoli growth 0.74 and HNF4A DNA FP 0.5.
Screening COC(=O)c1cc(OC)c(OC)cc1NC(=S)Nc1cccc(Cl)c1 returned ALR H2O2 inh 53, Vif A3G 3% and HNF4A DNA FP -1.4.
CN(C)S(=O)(=O)N1CCN(S(=O)(=O)N2CCOCC2)CC1 was read as Ecoli rRNA inh 18, MLL AF4-AF9 inh 2.0, Vif A3G 9%, Ecoli growth 0.69, HNF4A DNA FP -1.9, Ecoli rRNA inh OD600 20 and Ecoli rRNA inh RFP 1.0.

Source: PubChem BioAssay (several laboratories)
